Arbovirus inh: blocks arbovirus infection; actives 0.37% (n = 200,000); arbovirus infection cell-based antiviral screen; inhibition, % at 10 µM;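 active = inhibition from about 30%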;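 note: bluetongue infection of BSR cells; cell survival read as ATP light after 72 h; 0% = infected wells without compound and 100% = uninfected wells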
Mtb bLac sens: beta-lactam sensitization of Mtb H37Rv; M. tuberculosis H37Rv growth with meropenem, percent inhibition; hits of this screen are not shown here; inhibition, % at 25 µM; actives 0.27% (n = 330,000); AID 434955;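 active = about 74% or more and at least 40 points above the plate without the antibiotic, then above 30% in a dose series; inconclusive = first-round hits that could not be retested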;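 note: growth measured after seven days incubation then overnight dye step; 0% = bacteria only wells and 100% = bacteria with antibiotic; twin plates without the antibiotic show which effects depend on it; some results filed as inactive read as strong as hits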
Mtb growth: M. tuberculosis H37Rv growth inhibitors, H37Rv strain (AID 1626) | M. tuberculosis H37Rv growth inhibition; higher % means a stronger effect | inhibition, % at 10 µM, or IC50 in µM where a hit was titrated | actives 0.95% (n = 220,000);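 active = confirmed in a dose series; inconclusive = inhibition above 80% but not taken into the dose series; inactive = below 80% or under 30% at every dose of the series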;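 note: bacteria incubated seven days before Alamar blue readout; 0% = bacteria only wells and 100% = bacteria with antibiotic wells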
YopH inh: YopH (Yersinia) phosphatase inhibition. fluorescence Ex485/Em525. inhibition, %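 (about 10 µM by stock and volumes)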. actives 0.16% (n = 140,000);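 active = inhibition of 50% or more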;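 note: controls were vehicle for no effect and minimum signal wells for full effect; inactives centre near -20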
RecA splice inh: Mtb RecA intein splicing inhibition. P9WHJ3. cell-free RecA intein splicing, fluorescence. inhibition, %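 (about 9 µM by stock and volumes)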. actives 0.75% (n = 290,000); in the data active = inhibition above about 30%; inconclusive = no clear call, values can overlap the other calls;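 note: 0% = vehicle wells and 100% = reference inhibitor control wells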
Target sequence (P9WHJ3 whole entry, looked up, canonical isoform): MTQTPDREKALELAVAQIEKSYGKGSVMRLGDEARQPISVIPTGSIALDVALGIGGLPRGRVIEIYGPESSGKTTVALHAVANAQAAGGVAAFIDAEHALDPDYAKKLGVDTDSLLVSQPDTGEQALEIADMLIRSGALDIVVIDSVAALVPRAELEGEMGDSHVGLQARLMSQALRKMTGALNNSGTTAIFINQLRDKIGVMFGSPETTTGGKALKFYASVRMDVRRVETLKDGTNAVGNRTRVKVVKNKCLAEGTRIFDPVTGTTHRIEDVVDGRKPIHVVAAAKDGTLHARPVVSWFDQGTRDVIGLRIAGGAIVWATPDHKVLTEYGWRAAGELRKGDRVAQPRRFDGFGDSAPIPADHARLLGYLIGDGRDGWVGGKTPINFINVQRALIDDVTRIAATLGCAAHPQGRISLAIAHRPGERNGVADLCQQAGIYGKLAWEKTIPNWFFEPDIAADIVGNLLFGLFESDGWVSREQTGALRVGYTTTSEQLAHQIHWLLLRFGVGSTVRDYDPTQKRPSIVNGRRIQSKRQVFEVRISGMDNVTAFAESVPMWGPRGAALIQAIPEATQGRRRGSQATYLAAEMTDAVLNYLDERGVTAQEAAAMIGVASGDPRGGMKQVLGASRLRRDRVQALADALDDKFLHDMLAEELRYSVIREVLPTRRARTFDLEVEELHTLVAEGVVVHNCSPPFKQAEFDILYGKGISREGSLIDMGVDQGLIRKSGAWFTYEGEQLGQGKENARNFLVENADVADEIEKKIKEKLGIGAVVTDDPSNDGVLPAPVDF
Arbovirus inh repeat: second read-out of Arbovirus inh, no call of its own (marks repeat the call); inhibition, %; measured here: 10K subset replicate screen; many hits read low in the repeat;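 first of two repeat runs on a subset; 0% = infected and 100% = uninfected wells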
Numbers without * were called inactive; ? = inconclusive; . = no result given. Only part of the results is shown, so the mix of outcomes need not match the whole.

SMILES	Arbovirus inh	Mtb bLac sens	Mtb growth	YopH inh	RecA splice inh	others
CC(OC(=O)CN1C(=O)c2ccccc2C1=O)C(=O)NC1CCCCC1 (centres undefined)	.	5	.	.	-0.6
O=C(O)c1cc(S(=O)(=O)N2CCCCC2)sc1Cl	1	7	-1%	-28	-0.8
O=C1/C(=C/c2ccncc2)SC(=S)N1Nc1ccccc1	.	65	6%	.	8.6
COc1cc2c(cc1OC)C(C)N(CC(=O)Nc1ccc(S(=O)(=O)N3CCCC3)cc1)CC2 (centres undefined)	.	-2	.	.	1.6
CC(=O)Nc1ccccc1/C=C/c1ccc2c(C)ccc(O)c2n1	-4	72	75%	-17	-1.4
O=C(O)c1ccc2cccnc2c1O	.	-6	-4%	.	-4.7
CCOC(=O)C1CCN(C(=O)CNC(=O)c2nn(-c3ccc(OC)c(OC)c3)c(=O)c3ccccc23)CC1	.	6	.	.	1.4
CC1(C)CN(S(=O)(=O)OCC(Cl)(Cl)Cl)C(=O)N1	.	-5	.	.	1.0
c1ccc(-n2cnnc2SCc2cn3cccnc3n2)cc1	1	-3	-3%	21	0.1
COc1ccc(NC(=O)CCc2nnc3ccc(N4CCC(C)CC4)nn23)cc1	.	3	.	.	-5.1
FC(F)(F)c1nc2ccccc2c2nc3ccccc3n12	2	5	0%	-38	.
Cc1ccc(-n2nc(-c3ccco3)cc2C(=O)O)cc1	.	1	2%	.	1.4
Cc1cc(=O)n2c3ccccc3n(CC(O)CN3CCOCC3)c2c1C#N (centres undefined)	4	3	-4%	.	-0.4
Cc1[nH]c2ccccc2c1/C=N/NC(=O)Cc1cccs1	1	21	6%	-14	-1.7
O=C(COc1cc2oc(=O)c3c(c2cc1Cl)CCC3)Nc1cccnc1	.	-4	.	.	-2.1
CC1Cc2ccccc2N1C(=O)CSc1nn2c(=O)c(C(C)(C)C)nnc2s1 (centres undefined)	7	2	0%	.	7.6
Oc1c(C(c2ccc(F)cc2)N2CCc3ccccc3C2)sc2ncnn12 (centres undefined)	16	-5	6%	-27	-0.8	Arbovirus inh repeat=5
CCOc1ccc(CCNC(=O)C2CCN(S(=O)(=O)CC)CC2)cc1OCC	-1	2	-6%	-33	-1.9
Cc1cccc(NC(=O)COc2coc(CN3CCc4ccccc4C3)cc2=O)c1	.	-1	.	.	0.3
CCCC(=O)Nc1c(C(=O)OCC)oc2ccccc12	1	-2	1%	.	-1.7
CC(=O)Nc1ccccc1NC(=O)C/C(C)=N/NC(=O)c1ccccn1	2	100	50%	.	-1.8
CC(C(=O)NCCCc1ccccc1)n1cccc1C(=O)c1ccccc1 (centres undefined)	.	8	.	.	0.5
CCc1c(C(=O)NNC(=S)Nc2ccc(S(=O)(=O)Nc3ncccn3)cc2)csc1C	.	-5	.	.	-0.6
O=c1[nH][nH]c(C(F)(F)F)c1C=Nc1ccccc1Cl	-1	1	-6%	-47	.
O=S(=O)(Nc1ccc(Cc2ccncc2)cc1)c1ccc(Br)cc1	7	.	.	-31	0.0

Reprinted at random: 2 entries already listed
SMILES	Arbovirus inh	Mtb bLac sens	Mtb growth	YopH inh	RecA splice inh	others
Cc1ccc(-n2nc(-c3ccco3)cc2C(=O)O)cc1	.	1	2%	.	1.4
O=c1[nH][nH]c(C(F)(F)F)c1C=Nc1ccccc1Cl	-1	1	-6%	-47	.

Going on with the list.
SMILES	Arbovirus inh	Mtb bLac sens	Mtb growth	YopH inh	RecA splice inh	others
C=CCC1(CC=C)CCCN1C(=O)c1cc(COc2ccc(F)c(F)c2)on1	.	24	.	.	12
COc1cc2c(cc1OC)CN(S(=O)(=O)c1cccs1)CC2	5	-2	2%	-31	-1.4
N/N=C(\c1ccccc1)C12CN3CN(CN(C3)C1)C2	8	-2	-6%	-31	-2.6
Cc1cc2cc(C(c3nnnn3Cc3ccco3)N3CCc4ccccc4C3)c(=O)[nH]c2cc1C (centres undefined)	6	91	16%	1	0.3
CCOC(=O)C1(Cc2cccc(OC)c2)CCN(Cc2cccc(OC)c2OC)CC1	7	0	2%	.	.
Fc1ccccc1-c1csc(=Nc2cccnc2)n1CC1CCCO1 (centres undefined)	7	-3	-5%	-25	4.0
COc1ccc(S(=O)(=O)N/N=C\c2ccc3c(c2)OCO3)cc1	-2	-2	6%	-37	0.6
COc1cc([N+](=O)[O-])ccc1NC(=O)Nc1ccc(C(=O)N2CCCC2)cc1	.	-9	.	.	-0.7
Cn1c(N)c(C(=O)COC(=O)COc2ccc3ccccc3c2)c(=O)n(C)c1=O	1	18	-5%	.	0.4
O=C(NCc1cccs1)C(=O)NCC1OCCCN1S(=O)(=O)c1cccs1 (centres undefined)	4	-1	7%	.	-0.3
Cc1ccc(OCC(=O)Nc2cccc(S(=O)(=O)N3CCCCC3)c2)c([N+](=O)[O-])n1	11	5	7%	10	-2.1
Clc1ccc(-c2ccnc(Oc3ccc4ccccc4c3)n2)cc1	-5	-5	2%	-40	-0.8
CCOC(=O)/C=C/C(=O)OCC(=O)Nc1ccc([N+](=O)[O-])cc1	.	5	-7%	.	19
CC(C)CC(O)C1CCN(C(=O)CCc2nnc(-c3ccccc3)o2)CC1 (centres undefined)	2	-8	-5%	.	-1.3
O=C(Nc1nnc(-c2ccco2)s1)C1CCCCC1	6	-3	-4%	-22	2.3
C=CCOc1ccc(/C=C2\SC(=S)N(NS(=O)(=O)c3ccccc3)C2=O)cc1	.	3	.	.	13
O=C(c1ccc2c(c1)OCO2)C1CCCN(C(=O)c2cnn(Cc3ccccc3)c2)C1 (centres undefined)	-4	1	5%	.	1.6
Cn1cccc1Cc1nnc(SCC(=O)NCc2ccc(F)cc2)n1-c1ccc(F)cc1	5	-1	0%	.	-0.1	Arbovirus inh repeat=-7
CCCn1c(SCC(=O)Nc2cc(S(=O)(=O)N(C)C)ccc2OC)n[nH]c1=O	7	1	2%	.	-2.1
CCN(CC)CCCNC(=O)CC1Oc2ccc(C)cc2NC1=O (centres undefined)	12	0	-5%	-36	-1.4
Cc1ccc(C(=O)NC(=S)NCc2ccccc2)cc1	.	-1	.	.	4.8
CCOc1ccccc1C1C(C(=O)Nc2ccccc2OC)=C(C)Nc2nc(CCCO)nn21 (centres undefined)	2	6	5%	-45	1.6	Arbovirus inh repeat=5
CC(C)(C)OC(=O)N[C@@H](Cc1ccccc1)[C@H](O)c1ccco1	.	-1	-9%	.	0.8
Cc1c(C)c2ccc(OCC(=O)Nc3cccnc3)c(C)c2oc1=O	.	3	.	.	0.3
CC(C(=O)NCc1ccc2c(c1)OCO2)c1ccc([N+](=O)[O-])cc1 (centres undefined)	-6	5	15%	.	-3.8

The final five compounds of the section before lead into the next:
SMILES	Arbovirus inh	Mtb bLac sens	Mtb growth	YopH inh	RecA splice inh	others
Cc1ccc(C(=O)NC(=S)NCc2ccccc2)cc1	.	-1	.	.	4.8
CCOc1ccccc1C1C(C(=O)Nc2ccccc2OC)=C(C)Nc2nc(CCCO)nn21 (centres undefined)	2	6	5%	-45	1.6	Arbovirus inh repeat=5
CC(C)(C)OC(=O)N[C@@H](Cc1ccccc1)[C@H](O)c1ccco1	.	-1	-9%	.	0.8
Cc1c(C)c2ccc(OCC(=O)Nc3cccnc3)c(C)c2oc1=O	.	3	.	.	0.3
CC(C(=O)NCc1ccc2c(c1)OCO2)c1ccc([N+](=O)[O-])cc1 (centres undefined)	-6	5	15%	.	-3.8
O=C(COc1ccc(S(=O)(=O)NC2CCCC2)cc1)NCC1CCCO1 (centres undefined)	-5	0	-1%	.	-1.9
CCOc1ncccc1C(=O)OCc1ccc(C#N)cc1	1	1	5%	-8	2.2
CCCc1cc(=O)oc2cc(OCc3cccc(OC)c3)c(Cl)cc12	-10	1	-6%	-9	-2.4
Cc1cc(S(=O)(=O)Nc2ccc(C(=O)NCCCN3CCOCC3)cc2)ccc1F	.	-15	.	.	1.3
CCOC(=O)N=S(N)(=O)c1ccc(Cl)cc1 (centres undefined)	15	-5	-5%	-46	0.6
NC(=O)COC(=O)c1ccc(S(=O)(=O)N2CCCCCC2)cc1	2	-24	2%	-28	-1.4
O=C(CNC(=O)C1(c2ccccc2)CC1)Nc1ccc(F)c(F)c1	.	-2	.	.	-1.1
COc1ccc(CNC(=O)Nc2cccc(C)c2)cc1	1	2	4%	-29	-0.1
CC1(C)Cc2nc3oc4c(=O)n(CC(=O)Nc5ccc(Cl)cc5)cnc4c3cc2CO1	.	-7	.	.	2.8
CN(C)c1nc(-c2ccccc2)ns1	.	-12	-5%	.	-1.7
COc1cccc(CC2(CO)CCCN(Cc3ccc(C)s3)C2)c1 (centres undefined)	-4	-4	4%	.	1.6
COc1ccc(OC)c(/C=N/NC2=NS(=O)(=O)c3ccccc32)c1	.	-2	.	.	-2.9
COc1cc(OC)cc(C(=O)NNC(=O)c2ccc(S(=O)(=O)N(C)c3ccccc3OC)cc2)c1	.	-4	16%	.	-0.1
O=C(c1ccco1)N1C(=O)c2cccc3cccc1c23	7	-3	3%	-25	.
CCOc1ccc(OCC)c(NC(=O)CCCN2C(=S)NC(C)(C)CC2C)c1 (centres undefined)	-5	-5	-2%	-5	-5.2
CCOc1ccccc1OCCC(=O)OCC(=O)c1ccc[nH]1	1	9	-8%	.	-5.3
CC1(OC(=O)CCc2ccccc2)C(=O)C=C2C=C(c3ccc(C#N)cc3)N(Cc3ccco3)C=C2C1=O (centres undefined)	.	15	-17%	.	-9.3
O=C1N/C(=C/c2cccn2-c2ccc(F)cc2)C(=O)N1Cc1ccccc1	-5	8	7%	-15	-13
Cc1ccc(NC(=O)CSc2nnc(-c3cccs3)n2Cc2ccco2)cc1	-14	-10	2%	2	.
CCCOc1ccc(NC(=O)C2OC3OC(C)(C)OC3C3OC(C)(C)OC23)cc1 (centres undefined)	8	-7	-13%	-26	-0.9
Cc1nc(-c2ccc(Cl)cc2)sc1C1(C)CC(c2cccc(Cl)c2)=NO1 (centres undefined)	.	-4	.	.	2.1
N#Cc1cc2c(nc1SCc1ccccc1)CCCC2=O	5	-2	-2%	-11	-2.3
Cc1cccc(C2c3[nH]c4ccccc4c3CCN2C(=O)c2cn(C)c3ccccc3c2=O)n1 (centres undefined)	5	-3	17%	.	2.1
CN(C(=O)C1CCCO1)c1nnc(-c2ccncc2)s1 (centres undefined)	-2	-1	-1%	-23	-1.4
N#Cc1c(-c2ccccc2)nc(SCC(=O)NC2CCCCC2)[nH]c1=O	0	-5	4%	.	3.4

New compounds follow
SMILES	Arbovirus inh	Mtb bLac sens	Mtb growth	YopH inh	RecA splice inh	others
O=C(CN1C(=O)c2ccccc2C1=O)NCCOc1ccccc1	.	1	-13%	.	-1.0
Cc1c(Nc2cc(Cl)c3nonc3c2[N+](=O)[O-])c(=O)n(-c2ccccc2)n1C	-32	.	-5%	.	.
COc1ccc(Nc2cnn(-c3nc4ccccc4s3)c(=O)c2Cl)cc1	-29	22	9%	-10	47*
Cc1ccccc1OCCC(=O)Nc1ccc(Cl)cc1F	0	1	2%	-25	4.8
CCc1nn(C(CC)C(=O)NCc2cccc(OC)c2OC)c(=O)c2cc3occc3n12 (centres undefined)	.	3	.	.	-1.7
Cc1cc(C)c(NS(=O)(=O)c2ccc3c(c2)NC(=O)CCS3)c(C)c1	.	3	.	.	-3.4
Cc1cc(C(F)F)n2ncc(C(=O)NCCc3ccc(Cl)cc3)c2n1	-4	60	4%	3	3.7
O=C(Nc1ccccc1C(F)(F)F)c1cc(-c2cccc(O)c2)on1	5	8	0%	-19	.
COc1ccc(-c2nc(-c3ccc4c(c3)OCO4)[nH]c2-c2ccc(OC)cc2)cc1	0	6	?	-12	14
Cc1c(NC(=O)Nc2ccccc2C(F)(F)F)c(=O)n(-c2ccccc2)n1C	.	5	.	.	-0.6
CCCCOP(=O)(OCCCC)/C(C#N)=C(/C)O	6	1	-5%	-13	4.2
COCCNC(=O)/C(C#N)=C\c1ccc(CNS(=O)(=O)c2ccc(C)cc2)o1	6	-2	1%	.	-1.8
CCOc1ccc2nc(C(=O)N3CCCC(C)C3)sc2c1 (centres undefined)	4	96	29%	1	0.5
Cc1c(C(=O)Nc2ccc3c(c2)CCC3)cccc1[N+](=O)[O-]	-1	-6	12%	-10	-0.9
COc1ccc(N2CCN(C(=O)c3ccc(CS(=O)(=O)c4ccc(OC)cc4)o3)CC2)cc1	3	2	-5%	-46	.	Arbovirus inh repeat=0
COc1ccc(CC(=O)N2N=C(c3ccncc3)CC2(O)C(F)(F)F)cc1 (centres undefined)	-16	-4	5%	.	0.9
O=C(CSc1nnnn1-c1ccc(O)cc1)NC1CCCCC1	.	4	.	.	-0.4
CC(C)Cn1c2c(c(O)c(C(=O)Nc3nc4ccccc4s3)c1=O)CCCC2	.	23	1%	.	-1.7
CC(c1n[nH]c(=S)n1-c1ccc(Cl)cc1)N(C)C (centres undefined)	5	-6	-5%	-26	-3.4
Cc1cc(N2C(=O)c3ccc(C(=O)Nc4ccc(O)cc4C(=O)O)cc3C2=O)no1	.	-3	.	.	-2.0

Screens deposited in PubChem by several laboratories.
